Autophagy HCS – alters autophagy in cells; MEF GFP-LC3 puncta imaging; test concentration mostly 10 µM; calls only at 10 µM (by protocol); 190,000 compounds, 0.98% hits; AID 463193;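 active = percentage of spot-positive cells more than 3 SD above its plate mean, without a fluorescence outlier flag or 80% toxicity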;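 also: spot-positive cell cutoff set from DMSO-treated cells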
Ins promoter up – MIN6 insulin promoter up-regulation; MIN6 insulin promoter-GFP reporter, high-content imaging; stronger effect = higher value; 190,000 compounds, 0.3% hits; z-score at 5 µM;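 active = z-score above 3 at 5 µM with at least 500 cells counted in the well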
MT stabilize HCS – microtubule stabilizers in HeLa cells; 200,000 compounds, 0.83% hits; AID 2205; HeLa tubulin immunostaining HCS, 24 h; share of cells brighter than vehicle mean+2SD; % tubulin-high responders, % at 10 µM;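 active = plate Z-score above 3 for both tubulin-high and condensed-nucleus cell shares, with cell loss under 80%, at 10 µM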;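 also: anti alpha tubulin signal scored within the nucleus-defined area of each cell; some results filed as inactive read as strong as hits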
Yfh1-depleted yeast – mitochondrial function rescue without frataxin homolog – Friedreich's ataxia, plus single-dose screen, dose response (AID 1465); 220,000 compounds, 0.074% hits; S. cerevisiae Yfh1-off respiration, WST-1 reduction, 72 h; higher fold induction means a stronger effect; fold induction at 50 µM; hits with a dose series show EC50 in µM;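 active = fold induction of absorbance versus untreated yeast above a set limit, then at least 30% activation at any dose in follow-up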;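 also: activators that raise dye reduction in frataxin-depleted yeast; strong numbers were not always called active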
Dynein cargo inh – blocks dynein driven cargo transport along microtubules; z-score, hits read low; 3617.4 mouse cells, GR-EGFP nuclear translocation imaging; test concentration mostly 20 µM; stimulated with dexamethasone, 1 µM; stronger effect = lower value; 220,000 compounds, 0.47% hits;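 active = plate z-score of nuclear minus cytoplasmic receptor signal below a set negative limit, without overly bright fluorescence or cell loss, cut at about -3.5 in these data, passing the limit was not always enough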;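 also: z-score of nuclear minus cytoplasmic ring GR-EGFP intensity difference per well; some compounds called inactive have numbers as strong as hits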
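Also added – dexamethasone, 1.0 µM final · Buffer or medium – tet-free, stripped-serum medium · Schedule – induction 48 h, compound 1 h, agonist 30 min · Detection – formaldehyde fixation, Hoechst nuclear stain, 10x automated fluorescence imaging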
WT yeast gro inh – growth inhibition of WT yeast, mitochondrial fusion screen. mitochondrial fusion phenotypic screen, WT strain. inhibition, % at 10 µM. 190,000 compounds, 2.1% hits; in the data active = inhibition above about 58%; tested in S. cerevisiae
WT yeast gro inh mutant strain – further read-out of WT yeast gro inh, marked with its call; inhibition, %; mitochondrial fusion phenotypic screen, mutant strain inhibition
Dynein cargo inh cytoplasmic EGFP – second read-out of Dynein cargo inh, no call of its own (marks repeat the call); z-score; measured here: cytoplasmic GR-EGFP intensity; stronger effect = higher value
Dynein cargo inh nuclear GR-EGFP – further read-out of Dynein cargo inh, marked with its call; z-score; measured here: nuclear GR-EGFP intensity;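 lower value marks the stronger effect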
Dynein cargo inh cell count – also measured in Dynein cargo inh; calls as there; z-score; measured here: cell count per field
Ins promoter up cell count – second read-out of Ins promoter up, no call of its own (marks repeat the call); cell count; measured here: cytotoxicity, nuclei count;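 total cells summed across four imaged fields per well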
MT stabilize HCS Hoechst-high % – second read-out of MT stabilize HCS, no call of its own (marks repeat the call); % Hoechst-high responders; measured here: nuclear condensation Hoechst responders;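 share of cells brighter than vehicle mean plus two SD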
MT stabilize HCS cytotoxicity % – further read-out of MT stabilize HCS, marked with its call; toxicity, %; measured here: cytotoxicity by cell density;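 0% = mean cell density of plate MIN control wells and 100% = no cells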
Autophagy HCS cell loss 18 h – also measured in Autophagy HCS; calls as there; toxicity, %; measured here: cell loss, nuclei count;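 cell loss after 18 h compound exposure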
Active calls of the source: *; i = inactive; x = no result given. This is a subset; rates above refer to the full screens.

SMILES	Autophagy HCS	Autophagy HCS cell loss 18 h	Ins promoter up	Ins promoter up cell count	MT stabilize HCS	MT stabilize HCS Hoechst-high %	MT stabilize HCS cytotoxicity %	Yfh1-depleted yeast	Dynein cargo inh	Dynein cargo inh cytoplasmic EGFP	Dynein cargo inh nuclear GR-EGFP	Dynein cargo inh cell count	WT yeast gro inh	WT yeast gro inh mutant strain
CC(=O)c1c(C)[nH]c(C(=O)COc2cc(C)cc(C)c2)c1C	i	-21	-0.41	1521	1.6	1.9	9.0	i	-0.23	-0.16	0.67	-0.16	-9	3
CN(NC(=O)NN)c1ncc(C(F)(F)F)cc1Cl	i	3	-0.27	1602	1.4	1.4	9.5	i	-0.39	-0.46	-0.043	0.026	5	-1
CCOC(=O)c1ccc(NC(=O)C2(c3ccccc3)CCCC2)cc1	i	20	-0.67	1763	3.6	1.3	6.5	i	-0.3	-0.057	0.15	1.1	2	12
Cc1ccc2oc(-c3ccc(C)c(NC(=O)Cc4cccs4)c3)nc2c1	i	7	-0.08	1409	2.1	2.2	7.9	x	0.4	-0.25	0.83	-0.023	14	-19
CC(CC(=O)Nc1nc2ccccc2[nH]1)c1ccccc1 (stereo not given)	i	7	-0.03	960	1.9	1.8	5.0	i	2	-0.029	0.95	-0.57	-5	7
Cc1nnc(C)n1/N=C/c1cccs1	i	-2	0.16	1451	4.4	2.0	6.2	i	0.25	-0.45	0.15	0.23	-23	-69
COc1nnc(OC)c2ccccc12	i	5	0.63	1437	5.1	3.2	3.4	i	1.3	-0.33	0.65	-0.76	18	-12
COc1ccc(C(=O)N/C(=C/c2cccs2)c2nc3ccccc3[nH]2)cc1OC	i	4	x	x	2.4	2.2	5.4	i	-0.58	-0.28	-0.54	0.079	-8	-8
Cc1cc(NC(=O)COC(=O)c2ccc(NS(=O)(=O)c3ccc(C)c(C)c3)cc2)no1	i	-4	-0.37	1616	4.0	1.8	4.9	i	0.42	-0.22	-0.39	-1.5	-15	-18
CC(C)C(=O)Nc1sc2c(c1-c1nc3ccccc3[nH]1)CCCC2	i	-6	-2	1226	3.2	3.0	3.6	i	-0.26	-0.12	-0.91	0.18	21	16
O=C(N/N=C/c1ccncc1)c1nc(-c2ccccc2)n2c1CCCCC2	i	14	-0.75	1500	0.8	2.3	5.4	i	-0.14	-0.076	0.1	1.2	-25	-31
CCOC(=O)C1=C(O)C(=O)N(c2ccc(S(N)(=O)=O)cc2)C1c1ccc(OC)cc1 (stereo not given)	i	-4	0.23	1545	1.6	1.5	8.2	i	-0.65	-0.22	-0.26	0.76	10	-23
Cc1ccc(NS(=O)(=O)c2ccccc2Cl)c2c1CC(C)(C)O2	i	15	-0.25	1323	3.2	2.2	2.7	i	0.094	-0.24	0.37	0.032	28	15
O=C(Nc1ccccc1Cl)c1ccn[nH]1	i	0	0.66	1549	2.8	1.3	3.9	i	-1.1	-0.29	-1.3	0.88	-13	12
O=C(c1cc2nc(-c3ccco3)cc(C(F)(F)F)n2n1)N1CCc2ccccc2C1	i	-9	-0.31	1519	2.4	1.4	6.7	x	-0.36	-0.32	0.1	0.055	14	62
Cc1ccc(NC(CNS(=O)(=O)c2ccc(Cl)cc2)c2ccccc2)cc1 (stereo not given)	i	4	-0.63	1526	1.7	1.8	13	i	0.027	-0.22	-0.14	0.33	88*	37*
NC(=O)CN1C(=O)C2C3c4ccccc4C(c4ccccc43)C2C1=O (stereo not given)	i	0	0.31	1596	3.4	1.6	7.6	i	0.063	-0.29	-0.63	-0.3	2	-6
COc1cc(-c2nnc(-c3ccc(N4CCOCC4)cc3)o2)cc(OC)c1OC	i	20	-0.19	1658	2.6	1.8	5.7	i	0.0046	-0.24	-0.017	0.67	4	14
CC1(C)CC(=O)C(C(C2=C(O)CC(C)(C)CC2=O)c2ccco2)C(=O)C1 (stereo not given)	i	-28	-0.36	1581	2.7	2.1	13	i	-1.1	-0.2	-0.036	0.73	16	-3
CC(=O)Nc1ccc(NCN2C(=O)[C@@H]3[C@H]4CC[C@H](C4)[C@@H]3C2=O)cc1	i	-6	0.66	1574	3.1	3.1	9.1	i	-1	-0.049	-0.66	0.023	-17	3
Cc1ccc(S(=O)(=O)N[C@H](C(=O)N2CCC(C(=O)N3CCC[C@H]3C(=O)O)CC2)C(C)C)cc1	i	-8	0.01	945	1.8	1.6	3.7	i	-0.25	-0.14	-0.082	0.95	-12	0
O=C(NCc1ccco1)c1ccccc1NS(=O)(=O)c1ccc(Br)s1	i	6	-0.52	1473	5.0	1.3	4.7	i	0.42	-0.19	0.34	-0.097	15	15
CCC1CCCCN1CCn1c(=S)[nH]c2cc(OC)c(OC)cc2c1=O (stereo not given)	i	-37	-0.53	1051	5.4	4.7	12	i	1.9	-0.12	1.2	-1.9	40	-8
O=C(Cc1ccc(Cl)cc1)Nc1ccc(N2CCN(C(=O)c3ccco3)CC2)cc1	i	5	-0.8	1184	3.5	2.1	5.4	i	0.26	-0.25	0.46	0.29	10	0
Cc1nc2c(C)cccn2c1/C(O)=C1\C(=O)C(=O)N(CCN(C)C)C1c1ccncc1 (stereo not given)	i	34	0.21	1539	1.6	1.7	9.9	i	-0.23	-0.22	0.068	0.39	-11	-6
CCc1ccc2nc(NC(=O)c3cc(C)on3)sc2c1	i	2	0.19	1395	38*	14*	60*	i	0.25	-0.15	-0.08	0.31	-6	74
Cc1[nH]c2ccccc2c1C(=O)/C=C/c1ccccc1	i	18	-0.45	1328	5.0	10	22	i	-1.8	-0.16	-0.83	0.15	2	7
O=C(Nc1ccc(Cl)cc1)C1CCN(C(=O)NC2CCCCC2)CC1	i	2	-0.69	1671	2.6	1.6	0.8	i	-0.043	-0.19	-0.68	0.49	13	15
O=C(C1CCCCN1S(=O)(=O)c1ccccc1)N1CCCCC1 (stereo not given)	i	6	1	1505	2.3	2.0	7.5	i	1.2	-0.21	-0.48	-0.66	-13	-29
O=C(O)CCCC(=O)Nc1ccc(Sc2ccc([N+](=O)[O-])cc2)cc1	i	4	1.2	1458	1.7	1.9	4.1	i	0.17	-0.2	-0.083	-0.051	-11	16
COC(=O)c1cn(CC(=O)N2CCCCC2C)c2ccccc12 (stereo not given)	i	6	0.15	1587	3.9	1.4	1.5	i	-0.88	-0.033	-1.1	-0.68	4	7
CCCN1C(=O)/C(=C/c2ccc(C)o2)SC1=Nc1ccc(OC)cc1	i	15	0.95	1620	1.6	1.2	7.3	i	1	-0.16	0.79	-0.76	-17	-7
COc1ccc(Br)cc1C(=O)Nc1ccc(Cc2ccncc2)cc1	i	-13	-0.2	1526	3.0	1.0	4.6	i	-0.53	-0.098	0.11	0.44	-6	-8
Cn1c(C(=O)O)c(CC(=O)NCC2COc3ccccc3O2)c2ccccc21 (stereo not given)	i	10	-0.13	1777	4.2	3.3	5.2	i	-0.27	-0.33	0.16	-0.15	17	7
CCOC(=O)c1ccc(N=C2S/C(=C\c3cc(C)n(-c4cccnc4)c3C)C(=O)N2C)cc1	i	4	x	x	4.1	2.0	12	i	-0.97	-0.28	-0.59	3.1	28	22
Cc1nnsc1NC(=O)OCc1ccc(C(F)(F)F)cc1	i	4	-0.07	1600	1.6	1.7	7.6	i	-0.31	-0.11	-0.18	1.4	-4	-10
N#CCO/N=C(\c1ccccc1)c1ccncc1	i	17	-0.31	1506	2.1	1.9	4.8	i	-0.44	-0.16	-0.32	0.12	-28	-38
O=C(NC(Cc1c[nH]c2ccccc12)c1nnc2n1CCCCC2)c1ccccc1Cl (stereo not given)	i	-3	2	1289	3.4	2.5	6.1	i	0.53	-0.025	0.4	0.15	21	0
C/C(=N\NC(=O)Cc1ccccc1)c1cccs1	i	-13	0.48	1675	2.2	2.1	6.5	i	0.3	-0.18	0.88	0.65	-16	-6
O=S(=O)(/N=C(\Sc1ccc(Cl)cc1)c1ccccc1)c1ccccc1	i	4	-0.67	1386	2.6	2.1	1.6	i	-2.9	0.44	-1.3	0.46	11	2

Retrieved by structure from the entries so far (2):
SMILES	Autophagy HCS	Autophagy HCS cell loss 18 h	Ins promoter up	Ins promoter up cell count	MT stabilize HCS	MT stabilize HCS Hoechst-high %	MT stabilize HCS cytotoxicity %	Yfh1-depleted yeast	Dynein cargo inh	Dynein cargo inh cytoplasmic EGFP	Dynein cargo inh nuclear GR-EGFP	Dynein cargo inh cell count	WT yeast gro inh	WT yeast gro inh mutant strain
COc1cc(-c2nnc(-c3ccc(N4CCOCC4)cc3)o2)cc(OC)c1OC	i	20	-0.19	1658	2.6	1.8	5.7	i	0.0046	-0.24	-0.017	0.67	4	14
COC(=O)c1cn(CC(=O)N2CCCCC2C)c2ccccc12 (stereo not given)	i	6	0.15	1587	3.9	1.4	1.5	i	-0.88	-0.033	-1.1	-0.68	4	7

(further entries)
SMILES	Autophagy HCS	Autophagy HCS cell loss 18 h	Ins promoter up	Ins promoter up cell count	MT stabilize HCS	MT stabilize HCS Hoechst-high %	MT stabilize HCS cytotoxicity %	Yfh1-depleted yeast	Dynein cargo inh	Dynein cargo inh cytoplasmic EGFP	Dynein cargo inh nuclear GR-EGFP	Dynein cargo inh cell count	WT yeast gro inh	WT yeast gro inh mutant strain
CCOC(=O)c1cc2c(=O)n3cccc(C)c3nc2n(CCCOC)c1=NC(=O)c1cccnc1	i	6	-0.68	1632	2.4	2.8	8.4	i	0.42	-0.3	0.26	0.2	3	0
CNC(=S)N1N=C(c2ccc(OC)cc2)CC1c1ccc(N(C)C)cc1 (stereo not given)	i	-1	-0.28	1386	0.7	1.3	4.8	i	0.11	-0.2	-0.095	0.045	0	-9
COc1ccc(-c2nc3c([nH]2)c(=O)n(C)c(=O)n3C)c(OC)c1	i	-28	-0.69	1521	2.6	1.8	3.5	i	-0.23	-0.23	0.42	1.3	4	13
O=C(NC(=S)Nc1ccc2c(c1)OCO2)c1ccccc1	i	1	-0.44	1446	2.1	1.4	7.2	i	0.55	-0.19	0.055	-0.0029	22	24
O=C(c1ccco1)N(Cc1ccc([N+](=O)[O-])cc1)c1ccc(Br)cc1	i	10	0.13	1642	0.5	2.6	7.3	i	1.5	0.093	0.42	-0.28	31	33
COC(=O)c1ccc(NC(=S)NC2CCCCC2)cc1	i	-27	0.51	1651	2.1	1.5	11	i	0.095	-0.096	0.78	-0.56	8	0
Cc1ccccc1NC(=O)c1cccc(Cn2cc(Br)c([N+](=O)[O-])n2)c1	i	-11	-0.38	1517	2.3	1.3	8.4	i	0.78	-0.18	0.91	-0.14	5	1
CCCCn1c(SCC(=O)NC(C)(C)C)nnc1-c1ccco1	i	3	-0.27	1355	1.7	1.8	6.5	i	-0.76	0.69	-0.36	0.78	27	26
CCOc1c2ccc(C(=O)NCCCCc3ccccc3)cc2nn1C	i	-23	-0.12	1566	2.5	1.2	5.6	i	-0.47	-0.19	0.22	0.31	-26	2
COc1cc(C(=O)Oc2ccc3c(c2)OCC3=O)cc(OC)c1OC	i	3	-1.2	1526	3.5	1.4	2.0	i	0.02	-0.28	-0.87	0.44	1	-3
N#CNC1=NCN(CCc2ccccc2)CN1	i	8	0.02	1656	2.6	1.7	9.5	i	-1.4	0.012	-0.6	0.11	-14	3

Source: PubChem BioAssay
